# S aureus helic: inhibitors of S. aureus replicative helicase, primary screen, biochemical, fluorescence unwinding readout; actives 0.05% (n = 120,000); purified S. aureus helicase, fluorescence unwinding assay; about half of the hits fall short of the stated cut; AID 485395, 2010; inhibition, %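 (tested at about 80 µM)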;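 active = both duplicates at 50% or more, or one of them with a favoured structure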;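 note: 0% = mean of negative control wells and 100% = mean of positive control wells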
# MgrA-DNA mod: S. aureus MgrA activity modulators, primary screen, biochemical, S. aureus Newman, fluorescence polarization; MgrA-DNA binding; AID 602314, 2012; actives 0.13% (n = 84,000); inhibition, %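 (about 10 µg/mL by stock and volumes)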;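 active = above 50% in either of two replicates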;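 note: 0% = protein plus DNA without compound and 100% = DNA alone without protein; higher means less MgrA bound to DNA so lower polarization; one replicate is shown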
# * = called active by the depositor; x = no result given. Not all compounds are listed (hit frequency here may not be typical).
SMILES,S aureus helic,MgrA-DNA mod
CC(C)CSc1nc2c(cnn2-c2ccccc2)c(=O)[nH]1,16,x
CCN(Cc1ccccc1)C(c1ccccn1)c1nnnn1C1CCCCC1 (stereo unspecified),-11,2.7
CCCOC(=O)C1=C(C)NC2=C(C(=O)C(C(=O)OC)C(C)C2)C1c1ccc(F)c(Br)c1 (stereo unspecified),3,x
O=C1c2ccccc2NC(c2cccs2)N1c1ccc2c(c1)OCO2 (stereo unspecified),8,x
COc1cc2c(O)c3c(c(-c4ccc5c(c4)OCO5)c2cc1OC)C(=O)OC3,-19,x
Cn1nc(C(=O)OCc2nnc(-c3ccccc3)o2)c2ccccc2c1=O,-9,x
CC1CCN(C(=O)/C=C/c2c(F)cccc2Cl)CC1,21,2.5
CCc1cccc(C)c1N(C(C)=O)C1=NCCC(=O)S1,x,0.4
N=Nc1c(O)n(CC(=O)Nc2ccccc2)c2ccccc12,6,0.8
CCC(=O)N(c1nnc(SCC(=O)NCC(F)(F)F)s1)C1CC1,-1,x
CC1(C)CC(NC(=O)CCc2ccccc2)CC(C)(C)N1,-10,1.6
CC1(c2ccccc2)CC(c2ccccc2)=C(C#N)C(=O)N1 (stereo unspecified),x,-1.8
CN(C(=O)Cn1nc(Cc2ccncc2)c2ccccc2c1=O)c1ccccc1F,-1,x
Cc1cc2nnc(SCC(=O)O)n2c2ccccc12,17,x
CC(=O)c1ccc(C(=O)Nc2ccccc2-c2nc3ccccc3[nH]2)cc1,x,0.2
CN(C)c1ccc(/C=C/C=C/c2cc[n+](C)cc2)cc1,17,4.6
CC1CC(C)CN(S(=O)(=O)c2ccc(C(=O)NCc3ccccn3)cc2)C1 (stereo unspecified),-25,x
Cn1c(=O)c2nc(SCC(=O)O)n(Cc3ccc(Cl)cc3Cl)c2n(C)c1=O,x,4.0
Cn1c(=O)c2c(ncn2CCCNC2=CC(=O)CC(C)(C)C2)n(C)c1=O,14,x
N#Cc1cc(C(=O)c2ccccc2O)cn(-c2ccccn2)c1=O,-87,x
S=C(NC1CCCCC1)NN1CCOCC1,-2,-1.4
CC(C)C(=O)N(Cc1cc2ccccc2[nH]c1=O)CC1CCCO1 (stereo unspecified),-11,1.2
COc1ccc(-c2ccc(/C=N/NC(N)=O)o2)cc1,-1,2.5
Cc1n[nH]c(=S)n(/N=C/c2ccccc2)c1=O,-11,2.0
CCOC1CSc2sc(=S)sc2S1 (stereo unspecified),11,x

# Some of these compounds in order of length of the SMILES, high to low:
SMILES,S aureus helic,MgrA-DNA mod
COc1cc2c(O)c3c(c(-c4ccc5c(c4)OCO5)c2cc1OC)C(=O)OC3,-19,x
CC(C)C(=O)N(Cc1cc2ccccc2[nH]c1=O)CC1CCCO1 (stereo unspecified),-11,1.2
CCN(Cc1ccccc1)C(c1ccccn1)c1nnnn1C1CCCCC1 (stereo unspecified),-11,2.7
CC1(c2ccccc2)CC(c2ccccc2)=C(C#N)C(=O)N1 (stereo unspecified),x,-1.8

# (more compounds)
SMILES,S aureus helic,MgrA-DNA mod
CCOC(=O)Cc1csc(CS(=O)(=O)c2ccc(Cl)cc2)n1,x,-0.1
CN1C2CCC1CC(NC(=O)CSc1ccccc1)C2 (stereo unspecified),x,0.2
CCCN(CC(=O)Nc1ccccc1C)C(=O)CSc1nnc2ccccn12,13,x
Cc1sc2c(c1C)-c1nc(SCC(=O)C(C)(C)C)ncc1S(=O)(=O)N2C,x,-1.9
C=CCn1cc(/C=c2\sc3n(c2=O)C(c2ccc(OC)c(OC)c2)C(C(=O)OCC)=C(C)N=3)c2ccccc21 (stereo unspecified),x,0.7
O=C1CCCC2=C1C(c1ccccc1F)n1ncnc1N2 (stereo unspecified),-3,x
CCC1CCc2nc3sc(C(=O)Nc4cc(Cl)ccc4OC)c(N)c3cc2C1 (stereo unspecified),-7,1.9
Cc1ccc(/C=C2/C(=O)/C(=C/c3ccc(C)o3)C3CCC2N3C)o1,-98,x
Oc1ccc(CNc2ccccc2C(F)(F)F)c2cccnc12,-4,8.6
CCN1C(=O)c2ccccc2S(=O)c2ccc(C(=O)N(C)C3CCCCC3)cc21 (stereo unspecified),11,1.5
O=C1C(=O)N(CCCn2ccnc2)C(c2cccc(Br)c2)/C1=C(\O)c1ccccc1 (stereo unspecified),9,1.8
Cc1[nH]c2ccccc2c(=O)c1Cc1c(C)[nH]c2ccccc2c1=O,-25,x
NC(=O)Cc1ccc(NC(=O)CCC(=O)O)cc1,15,-1.6
COCC(C)n1c(C)cc(C(=O)COC(=O)c2ccc3ncsc3c2)c1C (stereo unspecified),-4,x
CC1(C)CC(=O)C(/C=N/n2cnc3ccccc3c2=O)=C(O)C1,5,3.0
O=C1NCCN1CCNS(=O)(=O)c1cccc2cccnc12,-7,x
COC(=O)c1ccccc1NC(=O)COc1ccc2oc(-c3ccco3)cc(=O)c2c1,3,0.8
Cn1c(O)c(Cc2c[nH]c3ccccc23)c(=O)n(C)c1=O,2,7.3
O=C(Cn1cc(/C=C2/C(=O)Nc3ccccc32)c2ccccc21)NCC1CCCO1 (stereo unspecified),-103,21
CCOC(=O)Cc1csc(SCC(=O)/C(C#N)=C(\C)N)n1,-4,x
C/C(=C/C(=O)C(F)(F)F)N1CCN(S(=O)(=O)c2cccc(Cl)c2)CC1,-7,x
OC1CCN(CC2CC=CCC2)CC1 (stereo unspecified),3,-0.4
COCCOC(=O)C1=C(N)C(C(=O)Nc2cccc(C#N)c2)SC1=Nc1ccc(C)cc1C (stereo unspecified),-7,x
CN1CCN(C(=O)c2ccc3c(c2)S(=O)(=O)c2ccccc2C3=O)CC1,8,x
O=C(NC(=S)NC12CC3CC(CC(C3)C1)C2)c1ccccc1,x,-0.8

# (next part)
SMILES,S aureus helic,MgrA-DNA mod
CC(CCNS(=O)(=O)c1ccc(-c2cc(C(F)(F)F)no2)s1)N1CCCCCC1 (stereo unspecified),12,x
N#Cc1cccc(Nc2c3c(nc4ccccc24)CCC3)c1,-17,x
Cc1ccc(S(=O)(=O)N(CCC(=O)O)Cc2ccccc2)cc1,-9,-0.4
CC(C)C(=O)Nc1nc2c(ncn2C2OC(CO)C(O)C2O)c(=O)[nH]1 (stereo unspecified),-28,x
Cc1cc(C(F)(F)F)nc(Sc2nc(C)cc(C)c2C#N)n1,-2,0.5
CC(=O)Nc1ccc(S(=O)(=O)NCc2cccn2Cc2ccc(F)cc2)cc1,0,x
CCc1ccccc1NC(=O)N1CCN2CCCCC2C1 (stereo unspecified),-12,x
O=S(=O)(Nc1ccc(CN2CCCCC2)cc1)c1ccc(-n2cccn2)cc1,10,x
O=S1(=O)C=CC(Nc2cccc3ccccc23)C1 (stereo unspecified),19,1.4
O=C(Nc1ccccc1)N1CCc2c([nH]c3ccccc23)C1C(F)(F)F (stereo unspecified),x,0.3
[O-][n+]1ccccc1OCc1ccc(Cl)cc1,-6,x
FC(F)(F)c1ccc(N2CCSCC2)nc1,x,-0.8
CN(C1CCCCC1)S(=O)(=O)c1cccs1,x,-1.0
O=C(CCCn1c2ccccc2c2cn[nH]c(=O)c21)NCCc1ccccc1,13,-0.7
O=C1CC(c2ccccc2)CN1S(=O)(=O)c1ccccc1 (stereo unspecified),6,x
COc1cc(C(F)(F)F)nc2ccc(C)c(NC(=O)c3ccc(Cl)cc3)c12,x,0.7
CC(C)Sc1nnc(Cc2cc(=O)[nH]c(=O)[nH]2)n1-c1ccc(F)cc1,6,0.8
O=C(CCCC(=O)Oc1ccccc1F)Nc1cccc2ccccc12,1,-1.1
COc1ccc(OCCC(=O)NCc2ccccc2)cc1,4,1.5
Cc1cccc(OCCn2cnc3c(cnn3C)c2=O)c1,15,x
COC(=O)C(NS(=O)(=O)c1ccc(N2CCCC2=O)cc1)c1ccccc1 (stereo unspecified),1,-1.9
COC(=O)C1=C(C(=O)c2ccccc2)C(c2ccccc2)n2ncnc2N1 (stereo unspecified),11,-6.8
O=C(COC(=O)COc1ccccc1F)NC1CC1,-14,-1.0
COc1ccc(OC)c(NC(=O)CCc2c(C)nc3c(c(C)nn3C)c2C)c1,18,x
CCCn1cnc2c(N)c(C)c(C)cc21,x,-1.4

# Four of the compounds above, field by field:
smiles: O=S(=O)(Nc1ccc(CN2CCCCC2)cc1)c1ccc(-n2cccn2)cc1
  S aureus helic: 10; MgrA-DNA mod: x

smiles: O=S1(=O)C=CC(Nc2cccc3ccccc23)C1 (stereo unspecified)
  S aureus helic: 19; MgrA-DNA mod: 1.4

smiles: O=C(Nc1ccccc1)N1CCc2c([nH]c3ccccc23)C1C(F)(F)F (stereo unspecified)
  S aureus helic: x; MgrA-DNA mod: 0.3

smiles: [O-][n+]1ccccc1OCc1ccc(Cl)cc1
  S aureus helic: -6; MgrA-DNA mod: x

# Continuation.
SMILES,S aureus helic,MgrA-DNA mod
O=C(Nc1ccncc1)c1nn2c(C(F)(F)F)cc(-c3cccs3)nc2c1Br,x,-0.5
CCOC(=O)c1cnc2cc(Cl)c(F)cc2c1OCC,x,3.6
COC(=O)C(Cc1c[nH]c2ccccc12)NC(=O)c1cccc([N+](=O)[O-])c1 (stereo unspecified),x,-0.9
Nc1nc2n[nH]nc2c(=O)[nH]1,x,4.5
CC(C)NC(=O)C1CN(S(=O)(=O)c2ccccc2)CCN1S(=O)(=O)c1ccccc1 (stereo unspecified),12,-0.7
O=C(O)CCc1cc(Cl)no1,-8,-5.8
CCn1cc(NC(=O)NCC2COc3ccccc3O2)c(=O)c2ccc(C)nc21 (stereo unspecified),-25,x
CC(C)(C)c1ccc(/C=C/C(=O)Nc2ncccn2)cc1,19,-1.1
Cc1ccc(SCC(=O)Nc2nncs2)cc1,8,0.7
CNC(=O)CN1CCNCC1,-5,x
S=C(NCc1cccs1)N1CCN(c2ncccn2)CC1,-6,x
CCc1nnc(SCC(=O)N(CC)Cc2ccccc2)c2cc3occc3n12,6,x
CCNc1nc(NC(C)C)nc(NS(=O)(=O)c2ccc(C)cc2)n1,x,3.7
CCOC(=O)C1=C(C)N=c2s/c(=C3\C(=O)N(C(C)=O)c4ccccc43)c(=O)n2C1c1ccc(OC)c(OC)c1 (stereo unspecified),x,-2.2
CCN1C(=O)c2cccc3c(NC(=O)C(C)(C)C)ccc1c23,-18,x
Cc1cc(N2CCOCC2)nc2ccc(NC(=S)N3CC(C)CC(C)C3)cc12 (stereo unspecified),15,-0.1
CCCCCc1ccc(C(=O)O/N=C/c2c(Cl)cccc2Cl)cc1,x,-1.9
Cc1ccc(N2C(=O)CC(SCC(=O)Nc3cc(C(F)(F)F)cc(C(F)(F)F)c3)C2=O)cc1[N+](=O)[O-] (stereo unspecified),x,3.0
O=C(c1ccccc1)n1ccc2ccccc21,x,-0.9
COC1=CC(=O)CC(C)C12Oc1c(Cl)c(OC)cc(OC)c1C2=O (stereo unspecified),-30,x
Cc1c(-c2ccnc(N)n2)nnn1-c1ccc(Cl)cc1Cl,x,-1.0
Cc1c2cnn(-c3ccccc3)c(=O)c2c(C)n1CCCC(=O)NCCc1ccccc1,10,-2.0
CCC(C)NC(=O)CN1N=C(c2ccc(Cl)cc2)CCC1=O (stereo unspecified),5,x
CCN(C(=O)COc1ccc(Br)cc1F)C1CCS(=O)(=O)C1 (stereo unspecified),-9,x
COc1ccc(C(=O)NCc2ccc(-c3nc4ncccc4o3)cc2)c(OC)c1,-2,-2.7

# Other compounds
SMILES,S aureus helic,MgrA-DNA mod
CNC(=O)c1nn(-c2ccccc2)nc1CO,-24,x
Cc1cc(NCCc2ccccc2)n2ncnc2n1,-3,x
O=C(NNc1ncnc2ccccc12)c1ccc(Br)cc1,8,x
CCN(CC)C(=O)CSc1ccc(S(=O)(=O)N2CCN(C)CC2)cn1,-4,x
O=C1NCCCCC1NS(=O)(=O)c1cc(S(=O)(=O)c2ccccc2)cs1 (stereo unspecified),11,x
FC(F)Oc1ccc(C2N=C(c3ccccc3)NO2)cc1 (stereo unspecified),-8,x
CC(C)(C)c1cc(=O)[nH]c(SCc2ccccc2)n1,x,-0.9
OCc1ccc(OCc2ccc(F)cc2)cc1,x,1.5
COC(=O)c1cc2oc(C)cc2n1CC(=O)NCCC1=CCCCC1,6,x
N#Cc1ccc(-c2csnn2)cc1,x,1.2
O=C(CCC(=O)N(Cc1ccccc1)Cc1ccccc1)Nc1ccc(F)cc1,-14,-0.8
O=C(O)CCn1nc(Nc2ccccc2)n(-c2ccccc2)c1=S,x,3.1
CC(=O)NC(c1ccc(Cl)cc1)n1ccnc1 (stereo unspecified),x,-2.7
C=CCNC(=S)Nc1ccc(N2CCN(c3ccc(C(F)(F)F)cn3)CC2)nc1,-24,x
Cc1ccccc1OCC(=O)N(Cc1nnc(-c2ccc(Cl)cc2)o1)C(C)C,8,x
C=C1N(Cc2ccccc2)C(=O)OC1(C)C,8,-1.8
NN(CCO)C(=S)NCc1ccc(Cl)cc1,x,3.0
COC(=O)c1sc(S(C)(=O)=O)c(C#N)c1-c1cc(C(C)(C)C)oc1C,x,-1.4
O=C(O)C1CC2CC3CC(C2)CC1(O)C3 (stereo unspecified),-6,x
CCC(=O)Nc1cc2nc3[nH]c(=O)n(CCc4ccccc4)c(=O)c3nc2cc1C,-120,x
O=C(O)c1cccc(NS(=O)(=O)/C=C/c2ccccc2)c1,-15,x
O=C(Nc1ccc(N2CCOCC2)cc1)c1ccccc1,4,1.2
Cc1ccc(-c2nnc(NC(=O)c3ccc(S(=O)(=O)N4CCCCC4)cc3)s2)cc1,x,2.8
O=S(=O)(/C=C/c1ccccc1)n1ccnc1,12,x
